Source: PubChem
Anaer choline gr – inhibitors of anaerobic choline-dependent gram-negative bacterial growth; hit rate 0.2% among 55,000; calls only; Gram-negative bacterium anaerobic choline minimal medium, absorbance growth; hits give low values; many inactives read as strong as hits in the columns shown;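 active = growth z-score on choline under -2 at 7 or 20 h with little or no fall on glycerol, limits in tiers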;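 also: stock transfer was 300 nL into about 50 µL; the organism is E. coli; final concentration not given here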
Anaer choline gr early – second read-out of Anaer choline gr, no call of its own (marks repeat the call); z-score; measured here: choline growth z-score, timepoint 1;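 score of optical density at 7 h as mean of two plates; lower means less growth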
* = called active by the depositor; i = inactive; & = joins results of further samples. The list is partial (hit frequency here may not be typical).

cpd	structure	Anaer choline gr early	Anaer choline gr
1	Cc1ccc(CNC2=NCCNC23CCN(S(=O)(=O)c2ccc(C)c(C)c2)CC3)cc1	-0.96	i
2	Cc1ccc(-c2noc(-c3nn(-c4ccc(C)cc4)ccc3=O)n2)cc1	2.3	i
3	COc1ccc(NS(=O)(=O)c2cc(-c3ccno3)oc2C)cc1	-1.32	i
4	CC1(C(=O)NCc2ccc(F)cc2)CCCN(C(=O)CSc2ccccc2)C1 (stereo unspecified)	-0.45	i
5	O=c1[nH]cnc2c1ncn2C1O[C@H](CO)[C@@H](O)[C@H]1O (stereo partly specified)	1.25	i
6	Cc1c(C(=O)N(C)C2CCCCC2)sc2nc(-c3ccccc3)cn12	-0.56	i
7	CC1CCN(C(=O)CS(=O)Cc2cnn(-c3ccccc3)c2-n2cccc2)CC1 (stereo unspecified)	-0.36	i
8	COC(=O)c1sccc1S(=O)(=O)Nc1ccc(Br)cc1	-1.75	i
9	Cc1nc2c(C)cccn2c(=O)c1Cc1nnc(SCc2cc(=O)c3cc(Cl)ccc3[nH]2)n1C	-1.43	i
10	COc1ccc(C2c3[nH]c4ccc(OC)cc4c3CCN2C(=O)Nc2ccc(OC)cc2OC)cc1 (stereo unspecified)	0.57	i
11	CCSc1nnc(-c2nn(C)c3c2CN(S(=O)(=O)c2ccc(C(C)C)cc2)CC3)n1CC	-0.36	i
12	CC1=C(c2ccc(Cl)cc2)S(=O)(=O)N=C1N1CCCN(C(=O)C(C)(C)C)CC1	0.57	i

cpd	structure	Anaer choline gr early	Anaer choline gr
13	Cc1ccc2[nH]c(=O)c(-c3noc(CCC(=O)NCC4CCCO4)n3)cc2c1 (stereo unspecified)	0.53	i
14	COC(=O)c1ccc(C2C3=C(CC(c4ccc(O)c(OC)c4)CC3=O)Nc3onc(C)c32)cc1 (stereo unspecified)	-0.35	i
15	c1ccc(-c2cc(NC3CC3)n3nc(-c4cccnc4)nc3n2)cc1	-0.44	i
16	Cc1cc2c(cc1S(=O)(=O)N1CCCC(C(=O)N3CCC(C)CC3)C1)OCC(=O)N2 (stereo unspecified)	0.01	i
17	COc1ccc(-c2noc(Cc3nc(-c4ccc(C)cc4)cs3)n2)cc1	2.48	i
18	Cc1cc(CNC(=O)NC2CCCCC2)c(C)n1-c1cccc(Cl)c1	-0.99	i
19	Cc1c(C(=O)OCc2ccc(F)cc2)nnn1-c1ccc(Br)cc1	0.07	i
20	Cc1ccc(Cl)cc1N1CCN(C(=O)CS(=O)(=O)Cc2nc(-c3ccccc3Cl)oc2C)CC1	-0.77	i
21	CC(C)CCNC(=O)C1(C)Cn2c(nc3ccccc32)C(=O)N1CCc1ccc(Cl)cc1 (stereo unspecified)	-0.12	i
22	O=S(=O)(c1cccc(F)c1)N1CCn2cccc2C1c1ccccc1 (stereo unspecified)	1.28	i
23	O=C(c1cnc(N2CCCCC2)c2ccccc12)N1CCOCC1	-1.32	i
24	COc1ccc(C(=O)N(CC2COc3ccccc3C2)C(C)C)cc1 (stereo unspecified)	-0.16	i

cpd	structure	Anaer choline gr early	Anaer choline gr
25	CCOc1ccccc1NC(=O)Nc1cc2c(cc1Oc1ccccc1)n(C)c(=O)n2C	-0.17	i
26	CCOC(=O)C1CCN(c2nnc(Cc3ccncc3)c3ccccc23)CC1	0.53	i
27	Cc1cccc(NC(=O)N2CCN(S(=O)(=O)c3cc4c(cc3Cl)NC(=O)C(C)O4)CC2)c1C (stereo unspecified)	0.43	i
28	CN(C)CCn1c(=S)[nH]c2ccccc2c1=O	-0.43	i
29	CCN(CC)C(CNC(=O)c1cc(-c2ccc3c(c2)OCCO3)on1)c1ccc(C(C)C)cc1 (stereo unspecified)	-1.26	i
30	Cc1nnc(-c2c(C)[nH]c(C)c2S(=O)(=O)N2CCN(CC(C)C)CC2)o1	-0.7	i
31	Cc1nc(-c2cccc(S(=O)(=O)Nc3ccc(S(N)(=O)=O)cc3)c2)no1	-1.09	i
32	CC(C)CCNC(=O)C1CCCN(C(=O)c2ccc(NC(=O)c3ccc(Cl)cc3)cc2)C1 (stereo unspecified)	-0.33	i
33	Cc1nc2nc(CN)nn2c(C)c1CCC(=O)NC1CCCCC1	0.76	i
34	Cc1ccc(-n2ncc3c(NC(C)(C)C)ncnc32)c(C)c1	0.06	i
35	O=c1c2ccccc2nc(/C=C/c2c[nH]c3ccccc23)n1CCc1ccccc1	-1.31	i
36	Cc1ccc(C(=O)NCC(c2cccnc2)S(=O)(=O)c2ccc(F)c(C)c2)cc1 (stereo unspecified)	0.7	i

Another view of some results above:
no. | Anaer choline gr early | Anaer choline gr | SMILES
33 | 0.76 | i | Cc1nc2nc(CN)nn2c(C)c1CCC(=O)NC1CCCCC1
34 | 0.06 | i | Cc1ccc(-n2ncc3c(NC(C)(C)C)ncnc32)c(C)c1
35 | -1.31 | i | O=c1c2ccccc2nc(/C=C/c2c[nH]c3ccccc23)n1CCc1ccccc1
36 | 0.7 | i | Cc1ccc(C(=O)NCC(c2cccnc2)S(=O)(=O)c2ccc(F)c(C)c2)cc1 (stereo unspecified)

Other entries:
cpd	structure	Anaer choline gr early	Anaer choline gr
37	O=C1Nc2ccccc2Oc2cc(Oc3ccccc3Br)c(S(=O)(=O)N3CCCC3)cc21	0.55	i
38	COc1ccc(OC)c2c(=S)c3ccccc3[nH]c12	0.2	i
39	COc1ccc(C(C)(O)C(CN2CCCC2)c2ccccc2)cc1 (stereo unspecified)	1.11	i
40	COC(=O)Nc1nc2ccc(C(=O)c3ccccc3)cc2[nH]1	-0.21&0.18	i
41	O=S(=O)(c1cn(Cc2noc(-c3cccc(Br)c3)n2)cn1)N1CCCCC1	-1.48	i
42	COc1ccc(N2C(=O)C3N=NN(Cc4ccc(C)cc4)C3C2=O)cc1OC (stereo unspecified)	-0.33	i
43	Cc1ccc(C)c(C(=O)Cn2nc3n(CC(C)C)c(=O)c4ccc(C(=O)NC(C)C)cc4n3c2=O)c1	1.09	i
44	Cc1c(C(=O)NCC(c2ccccc2)c2c[nH]c3ccccc23)oc2ccc(Cl)cc12 (stereo unspecified)	0.93	i
45	O=C1CCn2nc(-c3ccccc3)cc2N1	-0.48	i
46	Cn1c(=O)n(Cc2cccc(Cl)c2)c(=O)c2cnc(-c3cccnc3)nc21	0.6	i
47	Cc1ccc(CNC(=O)CCCN2C(=O)C(c3ccccc3)Oc3cccnc32)cc1 (stereo unspecified)	-0.63	i
48	COc1ccc(OC)c(NC(=O)N2Cc3c(sc4c3CCN(C)C4)-n3cccc3C2c2ccc(F)cc2)c1 (stereo unspecified)	0.02	i

Pulled by compound from the list above (five):
cpd	structure	Anaer choline gr early	Anaer choline gr
42	COc1ccc(N2C(=O)C3N=NN(Cc4ccc(C)cc4)C3C2=O)cc1OC (stereo unspecified)	-0.33	i
39	COc1ccc(C(C)(O)C(CN2CCCC2)c2ccccc2)cc1 (stereo unspecified)	1.11	i
41	O=S(=O)(c1cn(Cc2noc(-c3cccc(Br)c3)n2)cn1)N1CCCCC1	-1.48	i
37	O=C1Nc2ccccc2Oc2cc(Oc3ccccc3Br)c(S(=O)(=O)N3CCCC3)cc21	0.55	i
43	Cc1ccc(C)c(C(=O)Cn2nc3n(CC(C)C)c(=O)c4ccc(C(=O)NC(C)C)cc4n3c2=O)c1	1.09	i

Additional records follow.
cpd	structure	Anaer choline gr early	Anaer choline gr
49	CCn1c(=O)cc(SCC(=O)Nc2ccc(S(N)(=O)=O)cc2)c2ccccc21	-0.53	i
50	O=C(C1CCN(S(=O)(=O)c2ccc(-c3noc(-c4ccsc4)n3)cc2)CC1)N1CCCC1	0.4	i
51	O=C(CSCc1nc(-c2ccc(F)cc2)no1)N1CCc2ccccc21	1.03	i
52	Cn1c(=O)c(-c2c(Cl)cccc2Cl)cc2cnc(Nc3ccc(N4CCOCC4)cc3)nc21	0.74	i
53	CCS(=O)(=O)Nc1ccc2nc(N3CCN(c4ccccc4)CC3)cc(C(=O)O)c2c1	0.01	i
54	Cc1nc(-c2ccc(Cl)c(S(=O)(=O)N3CCCC(C(=O)NCc4ccc5c(c4)OCO5)C3)c2)no1 (stereo unspecified)	0.74	i
55	CCCc1c(OCCCCc2nn[nH]n2)ccc(C(C)=O)c1O	0.04&-1.01	i
56	Cc1ccc(C(=O)N2CCC(c3nc(-c4ccc(S(=O)(=O)N5CCCC5)cc4)no3)CC2)cc1	-1.18	i
57	Brc1ccc(Nc2c(-c3ccc4c(c3)OCO4)nc3cnccn23)cc1	-1.14	i
58	O=S(=O)(c1ccc(F)cc1)N1CCC2(CC1)NCCN=C2NC1CCCC1	-0.56	i
59	Cc1ccccc1Cn1nc2n(Cc3ccc(F)cc3)c(=O)c3nn(C)cc3n2c1=O	0.51	i
60	O=c1c(S(=O)(=O)N2CCCC2)cccn1Cc1ccccc1F	0.1	i

cpd	structure	Anaer choline gr early	Anaer choline gr
61	CCN1CCN(C(=O)c2sc3ncnc(N4CCN(C)CC4)c3c2C)CC1	-1.26	i
62	CC(C)(C)C(=O)NCCc1csc(-c2ccc(Cl)cc2)n1	0.3	i
63	CCc1ccc(S(=O)(=O)Nc2ccc(Cn3cnc(-c4nc(-c5ccc(F)cc5)no4)c3)cc2)cc1	-0.47	i
64	O=C1CC(c2cccc(F)c2)C2=C(CCCC2=O)N1 (stereo unspecified)	-1.03	i
65	O=C(c1cn(-c2cccc(Cl)c2)nn1)N1CCCC1	-1.17	i
66	Nc1ncnc2c1ncn2C1OC(CO)CC1O (stereo unspecified)	0.41	i
67	CCOC(=O)C1=C(C)NC(C)=C(C(=O)OCC)C1c1ccc2c(c1)OCO2	-0.2	i
68	Cc1ccc(-c2nccc(Nc3ccc(C(=O)NC4CCCC4)cc3)n2)cc1	0.92	i
69	Cc1cc(Nc2ccc(NC(=O)Nc3ccc4c(c3)OCO4)cc2)nc(N2CCCC2)n1	0.01	i
70	Cc1nc(Nc2ccc(NS(=O)(=O)c3ccc(F)cc3F)cc2)cc(N(C)C)n1	0.91	i
71	Brc1ccc2c(c1)nc(N1CCNCC1)c1cccn12	-5.07	i
72	Fc1cccc(-c2nn3cnnc3s2)c1	-1.95	i

cpd	structure	Anaer choline gr early	Anaer choline gr
73	O=C(Cc1c(Sc2ccc(F)cc2)[nH]c2ccccc12)N1CCN(c2ccccn2)CC1	1.53	i
74	Cc1cc(C)cc(-n2ccc(=O)c(-c3nc(-c4ccc5c(c4)OCO5)no3)n2)c1	-0.83	i
75	CN1CCN(c2oc(-c3ccc(S(=O)(=O)N4CCCCC4)cc3)nc2C#N)CC1	1.39	i
76	COc1ccc(C2C=C(c3ccc(Cl)cc3)Nc3nc(NS(=O)(=O)c4ccc(Cl)cc4)nn32)cc1 (stereo unspecified)	-0.03	i
77	CC1CCc2noc(NC(=O)c3ccccc3)c2C1 (stereo unspecified)	-0.42	i
78	COc1ccc(NC(=O)c2ccc(-n3nc(OCc4ccc(Cl)cc4)ccc3=O)cc2)cc1OC	-0.41	i
79	COc1ccc(-c2nc(-c3ccc(NS(C)(=O)=O)cc3)no2)c(OC)c1	-0.94	i
80	O=C1C(O)=C(c2ccccc2)C(c2ccc(Br)cc2)N1Cc1ccc2c(c1)OCO2 (stereo unspecified)	0.99	i
81	Cc1ccc(/C=C/c2onc(C)c2S(=O)(=O)N2CCC(C(=O)N3CCC(N4CCCCC4)CC3)CC2)cc1	-0.18	i
82	O=C(NCCc1ccc(Cl)cc1)c1cccn1-c1cccnc1	-1.22	i
83	CC1CCN(S(=O)(=O)c2nn(C)cc2C(=O)NCCN2CCCCC2)CC1	0.02	i
84	O=C(NCc1cccnc1)c1nc(-n2cnnc2)ccc1Br	-0.53	i

cpd	structure	Anaer choline gr early	Anaer choline gr
85	CCCCC[C@H](O)/C=C/[C@H]1[C@H](O)CC(=O)[C@@H]1C/C=C/CCCC(=O)O	0.85	i
86	Cn1nc(C(=O)NCCc2cnc[nH]2)c2c1-c1cc(F)ccc1SC2	-2.41	i
87	CC[C@@]1([C@@H]2O[C@@H]([C@H]3O[C@@](O)(CO)[C@H](C)C[C@@H]3C)C[C@@H]2C)CC[C@H]([C@]2(C)CC[C@]3(C[C@H](O)[C@@H](C)[C@@H]([C@@H](C)[C@@H](OC)[C@H](C)C(=O)O)O3)O2)O1 (stereo in doubt)	0.43	i
88	COc1cccc(C2Nc3ccc(C)cc3[C@H]3OCC[C@@H]23)c1 (stereo partly specified)	1.08	i
89	O=C(Nc1ccc2[nH]c(=O)oc2c1)c1cccc(Cl)c1	0.47	i
90	COc1ccccc1C(=O)Oc1cccc(-n2cnnn2)c1	-0.36	i
91	O=S1(=O)CCC(S(=O)(=O)NC2CCCC2)C1 (stereo unspecified)	-0.18	i
92	O=C(NCc1ccnc(N2CCSCC2)c1)Nc1ccc(Br)cc1	0.8	i
93	CSc1nc(N)c2ncn([C@@H]3O[C@H](COP(=O)(O)OP(=O)(O)O)[C@H](O)C3O)c2n1 (stereo partly specified)	0.73	i
94	O=C(CNC(=O)c1ccc(-c2noc(C3CCCC3)n2)cc1)NC1CCCC1	0.31	i
95	CCCCN(C(=O)Nc1cc(C(=O)OCC)c(C)nc1C)C1CCN(C)CC1	-0.75	i
96	Clc1ccc(SCCCN2CCCCC2)cc1	-4.6	i

cpd	structure	Anaer choline gr early	Anaer choline gr
97	Cc1ccc(NC(=O)CSc2nc3ncccc3[nH]2)cc1C	-2.49	i
98	Cc1ccc(OCCn2c(CCNC(=O)C(C)(C)C)nc3ccccc32)cc1	0.71	i
99	CC(C)c1ccc(NC(=O)CSc2nc(=O)n(Cc3ccncc3)c3c2CCC3)cc1	-0.73	i
100	COC(C)(C)CCCC(C)C/C=C/C(C)=C/C(=O)O (stereo unspecified)	0.48	i
101	Cc1ccc(-c2nnc(NC(=O)CN3CCN(S(=O)(=O)c4ccc(C)cc4C)CC3)s2)cc1	0.57	i
102	NC1=NC2C(N=C(Br)N2C2O[C@H]3COP(=O)(O)O[C@@H]3[C@@H]2O)C(=O)N1 (stereo partly specified)	0.49	i
103	COc1ccc(OC)c(NC(=O)Nc2ccc(-c3nc4ccccc4s3)cc2)c1	-0.71	i
104	CCOc1ccc(NC(=O)CSc2nc(-c3ccccc3)nc3c2Cc2ccccc2O3)cc1	-0.38	i
105	Cc1ccc(CCNC(=O)COc2ncnc3oc(C)c(C)c23)cc1	-0.56	i
